# UCH37 DUB inh: blocks the human deubiquitinase UCH37; purified proteasome/UCH37, Ub-AMC cleavage fluorescence; inhibition, % (test concentration not listed); 330,000 tested, 0.33% active;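 active means mean of two replicates above 20%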;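 further: 0% = compound-free wells with enzyme and 100% = wells lacking proteasome; stock transfer was 100 nL into about 20 µL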
#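 system = Proteasome-associated human UCH37 deubiquitinase | amount = 0.15 nM proteasome as dispensed | medium = pH 7.4 Tris-HCl (50 mM) with ovalbumin, ATP-MgCl2, DTT | incubation = 30 min preincubation with enzyme, 25 min cleavage at room temperature | detection = AMC fluorescence 355/460 nm | read-out basis = percent inhibition | controls = no-proteasome and no-compound wells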
# ALR H2O2 inh: inhibitors of human sulfhydryl oxidase ALR; inhibition, % (no concentration beside the values); P55789; purified ALR, DTT oxidation, H2O2 HRP-luminol luminescence; 290,000 tested, 3.8% active;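 active means mean and each replicate at 75% or more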;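 further: stock transfer was 7.5 nL into about 7.5 µL; 0% = neutral wells and 100% = wells with inactivated enzyme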
# E coli growth: inhibitors of Escherichia coli growth | AID 1053175 | OD600 absorbance (no concentration beside the values) | OD600, 23 h; active compounds read low | 330,000 tested, 0.21% active;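 active means OD600 absorbance below the run mean of sample wells minus 3.6 SD, in any replicate, cut at about 0.56 in these data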;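 further: stock transfer was 300 nL into about 60 µL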
# FGF22 binding: FGF22 (human) thermal shift binding | AID 651658 | recombinant FGF22 thermal shift, SYPRO orange fluorescence; percent of sucrose octasulfate shift, DMSO zero | calls only at 9.99 µM | Q9HCT0 | 340,000 tested, 1.5% active;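 active means melting point raised past a set limit in the mean and every replicate; three in four hits are not shown here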
# Target sequence (Q9HCT0 whole entry, looked up): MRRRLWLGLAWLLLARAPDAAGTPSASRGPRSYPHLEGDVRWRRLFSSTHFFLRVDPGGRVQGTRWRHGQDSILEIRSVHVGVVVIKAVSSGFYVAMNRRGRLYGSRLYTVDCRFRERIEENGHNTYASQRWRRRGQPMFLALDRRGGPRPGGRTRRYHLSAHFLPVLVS
# HNF4A DNA FP: change in binding of human HNF4 alpha to DNA; P41235; 360,000 tested, 0.3% active; HNF4a-FITC DNA binding, fluorescence polarization, 1 h; activity change, % at 10 µM; AID 1224865; in the data active means activity change above about 30%, passing the limit was not always enough;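 further: controls were the assay level and a saturating level of protein; the project sought stronger binding though the title names inhibitors; some compounds called inactive have numbers as strong as hits; positive values seem to mean higher polarization but the record does not say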
# Target sequence (P41235 whole entry, looked up): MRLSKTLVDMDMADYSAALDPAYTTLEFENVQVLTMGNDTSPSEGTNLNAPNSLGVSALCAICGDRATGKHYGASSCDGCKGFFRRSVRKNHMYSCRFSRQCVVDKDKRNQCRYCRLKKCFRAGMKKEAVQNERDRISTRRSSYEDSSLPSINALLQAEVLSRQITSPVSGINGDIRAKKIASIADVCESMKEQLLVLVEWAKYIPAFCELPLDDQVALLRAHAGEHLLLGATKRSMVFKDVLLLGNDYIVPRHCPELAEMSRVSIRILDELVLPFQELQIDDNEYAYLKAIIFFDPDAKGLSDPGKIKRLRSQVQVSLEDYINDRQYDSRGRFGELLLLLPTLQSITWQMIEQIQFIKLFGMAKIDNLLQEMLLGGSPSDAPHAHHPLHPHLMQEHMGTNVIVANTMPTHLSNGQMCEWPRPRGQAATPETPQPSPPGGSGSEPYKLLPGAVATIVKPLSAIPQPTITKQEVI
# rRNA inh HTS: selective bacterial rRNA inhibition in E. coli. E. coli WT GFP vs humanized-ribosome RFP mutants, fluorescence, 24 h; active compounds read low; DMSO median 0, no signal -100. 350,000 tested, 1.6% active. GFP signal change (wild-type ribosome), % (test concentration not listed);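 active means significant combined selectivity score with lowered wild-type GFP, culture density cut under 30%, mutant RFP and density less affected; inactive means any of these conditions unmet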; further: one replicate is shown; some compounds called inactive have numbers as strong as hits
# B2AR ag: human beta-2 adrenergic receptor agonism by FAP | Am2.2-beta2AR cells, FAP receptor internalization, flow cytometry; reference of the scale not given here | P07550 | 340,000 tested, 0.43% active | AID 504454 | response, % (test concentration not listed);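 active means response above a set limit, near 3 SD of response in nonfluorescent compounds, cut at about 42% in these data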;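 further: stock transfer was 100 nL into about 11 µL; a reference agonist was the positive control; negative values mostly stem from fluorescent compounds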
# Target sequence (P07550 whole entry, looked up): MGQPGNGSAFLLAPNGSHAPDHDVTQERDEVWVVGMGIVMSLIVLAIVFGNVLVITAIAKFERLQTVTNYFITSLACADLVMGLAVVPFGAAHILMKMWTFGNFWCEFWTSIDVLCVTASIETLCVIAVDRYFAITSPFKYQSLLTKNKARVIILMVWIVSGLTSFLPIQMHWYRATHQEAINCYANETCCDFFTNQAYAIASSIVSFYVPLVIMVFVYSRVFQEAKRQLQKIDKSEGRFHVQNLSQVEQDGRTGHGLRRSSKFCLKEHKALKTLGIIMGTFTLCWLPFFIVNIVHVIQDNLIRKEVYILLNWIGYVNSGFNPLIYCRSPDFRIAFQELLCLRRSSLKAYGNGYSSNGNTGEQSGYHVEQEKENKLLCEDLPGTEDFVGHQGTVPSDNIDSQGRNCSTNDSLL
# rRNA inh HTS OD600: recorded beside rRNA inh HTS, whose call it bears; OD600 change, %; measured here: OD600 growth;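 optical density of the mix in the first replicate; 0 = DMSO median and -100 = no signal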
# rRNA inh HTS RFP: also measured in rRNA inh HTS; calls as there; RFP signal change, %; measured here: RFP humanized mutant strains;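 first replicate; 0 = DMSO median and -100 = no signal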
# Numbers without * were called inactive; i = inactive; x = not tested or not shown; & = joins results of further samples. These rows are one share of the data, so the mix of outcomes need not match the whole.
SMILES,UCH37 DUB inh,ALR H2O2 inh,E coli growth,FGF22 binding,HNF4A DNA FP,rRNA inh HTS,rRNA inh HTS OD600,rRNA inh HTS RFP,B2AR ag
Cc1c(C(=O)NCCCN2CCOCC2)sc2ncnc(N3CCN(c4ccccc4)CC3)c12,5.3,x,0.731,x,-2.6,x,x,x,-6.4
COc1ccc(CNC(=O)COC(=O)CCC(=O)c2cccs2)cc1,0.1,-0.7,0.718,i,2.5,-2.1,-1.0,2.0,-2.9
CC(Oc1cccc(Cl)c1)C(=O)Nc1ccc(S(=O)(=O)NC2=NCCCCC2)cc1 (stereo not drawn),1.4,-9.2,0.63,i,1.8,-10.9,-13.5,1.8,4.8
CCOc1cc2c(cc1O)C(=NOC)CC1C2CCC2(C)C(O)CCC12 (stereo not drawn),x,x,x,i,-3.1,-28.7,-45.0,-1.5,33.3
COc1ccc(N(CC(=O)N2CCN(Cc3ccc4c(c3)OCO4)CC2)S(C)(=O)=O)cc1OC,-4.0,-2.5,0.735,x,-1.7,x,x,x,3.4
CCOC(=O)Cc1c(C)nc2c(-c3cccc(Br)c3)cnn2c1C,-46.7,3.8,0.69,i,1.1,x,x,x,-4.7
O=C(NNC(=O)c1ccccc1F)c1ccc(-c2ccccc2Cl)o1,x,x,x,i,-2.4,-20.2,-28.4,1.2,x
CCCc1nc2c(o1)CC(CC(C)SCC)CC2=O (stereo not drawn),6.2,-6.1,0.744,x,-1.2,x,x,x,-4.5
COc1ccc(C(C(=O)NCC2CCCO2)N(C(=O)Cn2nnc3ccccc32)c2ccc(NC(C)=O)cc2)cc1OC (stereo not drawn),2.1,17.9,0.654,i,1.7,11.5,4.1,-1.9,-1.2
CCCCN(C(=O)c1cccc(S(=O)(=O)N(C)c2ccc(C)cc2)c1)c1c(N)n(CC(C)C)c(=O)[nH]c1=O,5.8,x,0.671,i,4.5,8.5,4.3,-0.2,2.1
O=C1C2C3C=CC(C4CC34)C2C(=O)N1/N=C/c1ccc(-c2cccc([N+](=O)[O-])c2)o1 (stereo not drawn),x,-3.4,x,x,-0.7,x,x,x,-0.4
Cc1ccc(S(=O)(=O)N2C(c3ccc(Cl)c(Cl)c3)CC=C(C(=O)O)C2c2cccc(Cl)c2)cc1 (stereo not drawn),x,x,0.628,i,-4.4,5.7,1.9,0.5,x
CC(C)Cn1c(=O)c2c(nc3n2CCCN3Cc2ccccc2)n(C)c1=O,-4.0,-4.9,0.67,i,1.0,7.3,-9.3,-0.5,0.9
CCN(Cc1nc(-c2ccccc2)no1)C(=O)COc1cccc(OC)c1,2.8,x,0.622,i,3.4,-3.0,-4.5,6.2,13.3
CC(=O)c1c(C)[nH]c(C(=O)NC2CCSc3ccccc32)c1C (stereo not drawn),1.5,16.0,0.685,i,2.1,1.5,-7.8,3.0,-0.4
O=C(NCc1ccc2c(c1)OCO2)C1CCCN(C(=O)c2ccc(Cl)cc2)C1 (stereo not drawn),1.3,-8.4,0.729,x,4.0,x,x,x,-1.3
C/C(=N/NC(=O)CN1CCN(S(=O)(=O)c2ccc(Br)cc2)CC1)c1cccnc1,x,-6.9,x,x,0.8,x,x,x,12.2
NS(=O)(=O)c1cccc(NC(=O)c2ccc3nc[nH]c3c2)c1,-1.8,x,0.652,i,-0.2,8.9,11.1,4.0,9.7
Cc1cc(-c2n[nH]c(=S)n2/N=C/c2ccc(Br)s2)n[nH]1,x,96.7*,x,x,1.1,x,x,x,-16.3
CC(=O)c1ccc(-c2nnc(CCC(=O)N(C)Cc3c(C)nc4ccccn34)o2)s1,0.6,x,0.695,i,-0.8,4.2,-0.1,0.3,-3.5
O=C(N/N=C\c1cn[nH]c1-c1ccccc1)c1cccnc1,x,-5.2,x,i,-1.2,10.2,5.9,2.7,7.5
COC(=O)c1ccc(-n2nnnc2SCC(=O)Nc2ccccc2F)cc1,0.0,-10.9,0.684,i,3.3,-1.6,11.6,-2.5,0.8
COc1cccc(OC)c1OCCCCN1CCCC1,1.2,-3.3,0.708,x,-1.8,x,x,x,-4.8
OCCN(Cc1ccccc1)Cc1ccc(C(F)(F)F)cc1,-0.2,1.6,0.658,x,0.3,x,x,x,-5.7
CCSc1nc2sc3c(c2c2[n+]1CC(CBr)O2)CCCC3 (stereo not drawn),1.9,-1.2,0.696,i,-0.2,-25.2,-37.5,-4.3,-1.2
COc1ccc(-c2nc(SC(CC(=O)NCCO)c3cccs3)n[nH]2)cc1 (stereo not drawn),4.2,i,0.697,i,-0.8,-6.4,-12.0,-1.4,-3.9
COc1ccc(CCNC(=O)CSCc2ccc(Cl)cc2)cc1OC,-1.3,-24.1,0.685,i,3.0,-21.7,-17.6,5.1,-5.3
Cc1ccc(C(=O)N/C(=C\c2ccccc2)C(=O)NCCN2CCOCC2)cc1,4.3,0.9,0.65,i,1.1,1.2,1.2,0.2,-1.7
CCNc1ccc(C2(O)C(=O)c3ccccc3C2=O)cc1,1.2,29.0,0.698,x,-2.1,x,x,x,-0.2
NC(=S)N/N=C/c1ccc(-c2ccc(Cl)c(Cl)c2)o1,x,72.3,x,x,14.5,x,x,x,15.4
CCN1C(=NCc2cc(OC)c(OC)c(OC)c2)N[C@@H](c2ccccc2)C(C(=O)OC)=C1C,-0.1,-2.8,x,x,-1.2,x,x,x,13.4
O=C(/C=C\c1ccccc1)Oc1cccc2cccnc12,2.8,-42.1,0.695,i,7.7,-16.0,-10.1,-1.4,-1.2
COc1cc(C(=O)O/N=C(\N)Cc2ccc([N+](=O)[O-])cc2)cc(OC)c1OC,3.3,-6.4,0.701,i,-3.0,-14.1,12.2,-3.5,0.5
COc1ccc(NC(=O)N(C)C[C@@H]2OCc3cn(nn3)CCCC(=O)N([C@H](C)CO)C[C@H]2C)c(OC)c1,x,x,x,i,0.2,6.2&2.8,3.9&4.5,-7.4&-0.1,x
COCCNC(=O)c1c[nH]n2c(=O)cc(C3CCN(C(=O)OC(C)(C)C)CC3)nc12,4.5,x,0.716,i,-0.3,5.3,-3.3,16.6,1.8
O=[N+]([O-])c1cccc(/C=C/c2nc3ccc([N+](=O)[O-])cc3[nH]2)c1,7.4,-3.0,0.63,x,-1.6,x,x,x,27.1
CCc1cccc(NS(=O)(=O)c2ccc3c(c2)NC(=O)C(C)S3)c1 (stereo not drawn),x,-1.7,x,i,-1.4,-52.9,-81.4,-19.8,2.3
O=C(c1ccccc1)c1ncc[nH]1,2.3,-2.7,0.718,i,-0.5,12.8,10.7,0.2,-6.6
Cc1cc(CN2C(=O)c3ccccc3C2=O)no1,4.3,-2.0,0.651,x,3.8,x,x,x,-4.6
Cc1ccc(C(=O)Nc2c(C)cc(C)c3cccnc23)cc1,0.4,x,0.638,i,0.9,7.3,1.9,2.2,5.6
Cc1c(C(C)(C)C)s/c(=N/S(=O)(=O)c2ccccc2)n1C,x,0.1,x,i,-2.6,-4.0,14.3,4.6,-2.5
CC1(C)SC(=S)N(/N=C/c2ccccc2O)C1N(O)C(=O)Nc1ccccc1 (stereo not drawn),x,-12.0,x,i,-5.1,-15.5,-16.1,8.5,11.1
CS(=O)(=O)c1ccc(Cl)c(NC(=O)c2cccc(Br)c2)c1,1.9,-3.3,0.683,x,-1.5,x,x,x,-1.9
CC(C)NC(=O)CN1C(=O)c2cccc3cccc1c23,-21.1,-61.8,0.686,i,3.6,9.6,7.3,0.8,15.7
Cc1ccc(NC(=O)[C@H](Cc2c[nH]c3ccccc23)NC(=O)[C@@H]2Cc3ccccc3CN2)c(C)c1,0.5,-2.5,0.692,i,7.6,0.4,-2.3,0.4,2.6
CC(NC(=O)CSc1cccc(C(F)(F)F)c1)c1ccccc1 (stereo not drawn),5.2,-11.9,0.729,x,-3.2,-8.3,-7.8,-2.4,-8.1
COc1ccc([C@H]2CC(=O)C=C(c3cc(F)ccc3F)C2)cc1OC,3.2,1.0,x,i,2.5,-36.2,-31.4,-5.7,-2.0
COc1ccccc1C(=O)NCCC(=O)N(C)CC(=O)Nc1ccccc1Br,5.8,1.7,0.693,i,-1.7,0.6,0.1,-0.2,12.1
O=C(OC(C(=O)NCc1ccccc1)c1ccccc1)c1ccco1 (stereo not drawn),1.1,-3.8,0.62,i,-0.5,3.1,-5.8,1.1,2.4
Clc1ccc(-c2c[n+](Cc3ccc(Cl)cc3Cl)c3n2CCCCC3)cc1,x,-3.9,x,x,1.5,-50.9,-75.4,-14.4,-10.5
CC(=O)c1cccc(NC(=O)c2ccc(S(=O)(=O)N3CCCC3)cc2)c1,1.8,-8.6,0.699,i,5.8,-8.7,-10.9,-0.6,10.4
Cc1ccccc1C(=O)Nc1nnc(S(=O)(=O)N2CCCCCC2)s1,4.1,x,0.742,i,2.5,-7.5,2.2,-1.3,19.4
O=C(CCc1nc2sc3c(c2c(=O)[nH]1)CCCC3)NCCOc1ccccc1,1.0,0.6,0.667,x,14.3,8.4,1.4,3.9,1.6
N#C/C(=C\C1CC2C=CC1C2)c1nc2ccccc2[nH]1 (stereo not drawn),-4.0,-16.5,0.728,x,8.1,x,x,x,-11.6
Cc1ccc(F)cc1S(=O)(=O)NCc1ccc(N2CCN(C)CC2)cc1,1.1,-1.4,0.643,i,-0.1,14.8,8.7,7.6,-5.8
COc1ccc(NC(=O)C2CCN(C(=O)C3CC(=O)N(c4ccc(C)cc4)C3)CC2)cc1 (stereo not drawn),6.5,x,0.672,i,-2.4,1.0,7.9,0.1,-1.9
C[C@H](NC(=O)N1CCn2c1nc1ccccc12)C(=O)NCc1ccccc1,2.5,0.5,0.698,i,1.4,6.5,4.7,-1.0,-8.8
CCc1ccc(NC(=O)C/C(C)=N/NC(=O)OCc2ccc(OC)cc2)cc1,x,-5.6,x,i,-1.8,-1.1,1.6,-2.3,-12.6
O=C(CSc1ccc(Cl)cc1)N1CCCC1,-1.6,5.1,0.663,i,0.5,-5.1,4.7,-1.8,-6.7
CCN(CC)C(=O)C1=C(C)N(CCC2=CCCCC2)C(=O)C(CC(=O)NCCCCc2ccccc2)C1 (stereo not drawn),x,x,x,i,-0.5,-8.8,-12.8,3.7,x

# Some entries already given with just rRNA inh HTS OD600, UCH37 DUB inh and ALR H2O2 inh:
smiles | rRNA inh HTS OD600 | UCH37 DUB inh | ALR H2O2 inh
O=C(CCc1nc2sc3c(c2c(=O)[nH]1)CCCC3)NCCOc1ccccc1 | 1.4 | 1.0 | 0.6
CCN(CC)C(=O)C1=C(C)N(CCC2=CCCCC2)C(=O)C(CC(=O)NCCCCc2ccccc2)C1 (stereo not drawn) | -12.8 | x | x
C[C@H](NC(=O)N1CCn2c1nc1ccccc12)C(=O)NCc1ccccc1 | 4.7 | 2.5 | 0.5

# New compounds follow
SMILES,UCH37 DUB inh,ALR H2O2 inh,E coli growth,FGF22 binding,HNF4A DNA FP,rRNA inh HTS,rRNA inh HTS OD600,rRNA inh HTS RFP,B2AR ag
Cn1c(N)c(C(=O)COC(=O)CCc2ccccc2)c(=O)n(C)c1=O,1.6,x,0.694,i,-1.8,-13.7,-2.5,0.9,x
Cn1c(=O)c2c(ncn2CC(=O)OCC(=O)c2ccc(Br)cc2)n(C)c1=O,x,x,x,i,15.5,-3.7,-3.9,16.0,x
O=C(NCCc1ccccc1)c1cc(S(=O)(=O)N2CCOCC2)ccc1F,0.3,-9.2,0.719,x,1.1,x,x,x,3.8
O=C(Cc1cccc(F)c1)N1CCOCC1,x,x,x,i,-1.1,15.2,13.4,0.7,0.7

# Screening results deposited in PubChem BioAssay by several laboratories.
